# Screening data (PubChem BioAssay)
# RanGTP-Impb inh: inhibitors of RanGTP-importin-beta interaction, primary screen, biochemical, FRET, CFP-Ran, YFP-importin-beta, homogeneous; inhibition, % (no concentration beside the values); AID 2216; cell-free CFP-Ran/YFP-importin-beta FRET ratio; actives 1.1% (n = 300,000);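 active = most replicates above 15%; inconclusive = exactly half above 15%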;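 also: 0% = DMSO wells and 100% = Ran loaded with GDP instead of GTP; wells of about 40 µL received 100 nL stock; the first replicate is given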
# MLL AF4-AF9 inh: blocks AF4 peptide binding to human AF9. P42568. AlphaScreen, biotin-AF4 peptide binding to FLAG-AF9. inhibition, % at 10 µM. actives 0.47% (n = 350,000);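 active = every replicate reaching a set inhibition limit, whatever the replicate mean, cut at about 25% in these data; inconclusive = mean inhibition reaches that limit but some replicates miss it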;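 also: 0% = plate neutral control median and 100% = total signal loss; the record names both 10 and 1 µM as test concentration; the first replicate is given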
# Target sequence (P42568 whole entry, looked up): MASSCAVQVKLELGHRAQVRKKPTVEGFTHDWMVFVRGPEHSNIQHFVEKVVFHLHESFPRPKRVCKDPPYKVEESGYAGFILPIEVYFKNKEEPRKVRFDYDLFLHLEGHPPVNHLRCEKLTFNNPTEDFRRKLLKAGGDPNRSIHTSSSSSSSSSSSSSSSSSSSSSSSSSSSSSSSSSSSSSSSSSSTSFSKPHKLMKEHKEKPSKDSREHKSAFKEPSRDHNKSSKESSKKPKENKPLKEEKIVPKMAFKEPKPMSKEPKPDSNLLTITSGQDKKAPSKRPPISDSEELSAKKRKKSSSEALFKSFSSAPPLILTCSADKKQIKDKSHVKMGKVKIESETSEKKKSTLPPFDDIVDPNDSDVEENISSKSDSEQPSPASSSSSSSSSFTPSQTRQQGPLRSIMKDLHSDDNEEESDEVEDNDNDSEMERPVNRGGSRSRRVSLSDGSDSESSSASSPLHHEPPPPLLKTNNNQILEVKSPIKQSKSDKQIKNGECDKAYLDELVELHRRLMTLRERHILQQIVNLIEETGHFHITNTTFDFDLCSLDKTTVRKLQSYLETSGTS
# FGF22 binding: binders of recombinant human FGF22 by thermal shift; Q9HCT0; SYPRO orange fluorescence; percent of sucrose octasulfate shift, DMSO zero; calls only at 9.99 µM; actives 1.5% (n = 340,000);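 active = melting point raised past a set limit in the mean and every replicate; inconclusive = no clear call; three in four hits are not shown here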
# Target sequence (Q9HCT0 whole entry, looked up): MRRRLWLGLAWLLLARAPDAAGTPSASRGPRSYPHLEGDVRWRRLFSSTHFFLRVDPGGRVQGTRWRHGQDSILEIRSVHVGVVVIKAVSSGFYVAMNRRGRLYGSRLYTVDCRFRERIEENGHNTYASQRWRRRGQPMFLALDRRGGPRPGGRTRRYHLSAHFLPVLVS
# ALR inh: human ALR oxidase inhibition via reduced H2O2 | P55789 | purified ALR, DTT oxidation, H2O2 HRP-luminol luminescence | inhibition, % (test concentration not listed) | actives 3.8% (n = 290,000);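 active = mean and each replicate at 75% or more; inconclusive = only one of the two met; inactive = neither met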;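 also: stock transfer was 7.5 nL into about 7.5 µL; 0% = neutral wells and 100% = wells with inactivated enzyme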
# Target sequence (P55789 whole entry, looked up): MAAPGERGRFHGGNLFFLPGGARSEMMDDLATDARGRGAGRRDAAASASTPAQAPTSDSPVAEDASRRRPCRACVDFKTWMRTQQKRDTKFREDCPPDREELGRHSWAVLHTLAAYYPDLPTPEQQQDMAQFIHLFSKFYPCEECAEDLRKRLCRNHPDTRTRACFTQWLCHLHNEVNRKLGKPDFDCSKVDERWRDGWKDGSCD
# Beta apoptosis: blocks beta cell apoptosis; protection from apoptosis, % (test concentration not listed); INS-1E cytokine-induced death, ATP luminescence, 48 h; percent of positive-control rescue, neutral wells zero; actives 0.8% (n = 300,000);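 active = all replicates at 75% or more, or half of them and the mean; inconclusive = half reach 75% but not the mean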;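 also: 0% = cytokine-treated negative control wells and 100% = positive control rescue; higher means more ATP so stronger rescue from cytokine killing; wells of about 40 µL received 100 nL stock; the first replicate is given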
# rRNA inh HTS: inhibitors of bacterial rRNA selective over humanized ribosomes | GFP signal change (wild-type ribosome), % (concentration not given with the values) | actives 1.6% (n = 350,000) | E. coli WT GFP vs humanized-ribosome RFP mutants, fluorescence, 24 h; hits give low values; DMSO median 0, no signal -100;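 active = significant combined selectivity score with lowered wild-type GFP, culture density cut under 30%, mutant RFP and density less affected; inactive = any of these conditions unmet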; also: one replicate is shown; some compounds called inactive have numbers as strong as hits
# Calb FLC: C. albicans growth modulation with fluconazole. C. albicans CaCi-2 (fluconazole-resistant clinical isolate) + fluconazole, Alamar Blue growth, 48 h. growth inhibition, % (no concentration beside the values). actives 0.57% (n = 300,000). AID 1979;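 active = most replicates above 75%; inconclusive = exactly half above 75%; inactive = most below 75%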;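 also: all wells also contain fluconazole at 8 µg/ml as a sub-toxic cotreatment; 0% = median of DMSO wells and 100% = median of geldanamycin control wells; wells of about 8 µL received 7.5 nL stock; the first replicate is given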
# T cruzi repl: blocks replication of Trypanosoma cruzi; T. cruzi beta-gal in NIH3T3, luminescence, 90 h; inhibition, % (concentration not given with the values); actives 1.4% (n = 300,000); AID 1885;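 active = mean inhibition across valid replicates above about 55%, limit read from the data; inconclusive = mean below that limit but half or more replicates reach it; inactive = mean below it, under half of replicates reach it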;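 also: signal also drops with host cell toxicity which is not excluded here; 0% = plate median of DMSO wells and 100% = zero luminescence signal; higher percent means less beta-gal luminescence so fewer parasites; stock transfer was 50 nL into about 50 µL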
# rRNA inh HTS OD600: also measured in rRNA inh HTS; calls as there; OD600 change, %; measured here: OD600 growth;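 optical density of the mix in the first replicate; 0 = DMSO median and -100 = no signal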
# rRNA inh HTS RFP: recorded beside rRNA inh HTS, whose call it bears; RFP signal change, %; measured here: RFP humanized mutant strains;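 first replicate; 0 = DMSO median and -100 = no signal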
# * marks the source's active call; other numbers are inactive results; i = inactive; ? = inconclusive; . = not tested or not shown.
SMILES,RanGTP-Impb inh,MLL AF4-AF9 inh,FGF22 binding,ALR inh,Beta apoptosis,rRNA inh HTS,rRNA inh HTS OD600,rRNA inh HTS RFP,Calb FLC,T cruzi repl
CN1CCN(C2=Cc3cc(Cl)ccc3Sc3cc(F)ccc32)CC1,0.3,.,.,8,.,.,.,.,30,38
COc1cc2c(cc1OC)C1=C(C#N)CC/C(=N\S(=O)(=O)c3cccc(Cl)c3)N1CC2,0.5,.,.,-6,-1,.,.,.,-17,10
COCCCn1cnnc1SCC(=O)Nc1ccc(S(=O)(=O)N2CCCC2)cc1,1.3,.,.,3,-4,.,.,.,6,9
CCCn1c2c(c(O)c(C(=O)Nc3nc4ccccc4s3)c1=O)CCCC2,-3.8,-2.7,.,-2,-7,.,.,.,-7,0
COc1ccc(N2C(=O)CC(N(Cc3ccc(S(N)(=O)=O)cc3)C(C)=O)C2=O)cc1 (stereo not drawn),-3.8,.,.,-3,0,.,.,.,20,-14
CC(=O)Nc1ccc(S(=O)(=O)c2ccc([N+](=O)[O-])cc2)cc1,2.7,-5.3,i,-17,3,7,9,-3.3,2,70*
CCCOc1cccc(C(=O)Nc2cccnc2)c1,-0.1,.,.,4,-6,.,.,.,110*,-13
O=C(COc1ccc(F)c(Cl)c1)N1CCN(c2ccccn2)CC1,8.2,-1.7,i,-3,4,-10,-10,-3.7,9,-1
Cc1nn(CC2CCCCC2)c(N)c1-c1ccccc1,2.1,.,.,98*,-6,.,.,.,1,-10
COc1ccc2ccccc2c1CNCc1ccccn1,1.6,.,.,-21,.,.,.,.,2,2
Cc1ccc(Nc2nc(-c3sc(NC(=O)c4ccco4)nc3C)cs2)cc1,1.4,5.6,i,.,14,5,6,1.4,2,0
CC1(C)CC(=O)C=C(c2cccs2)C1,?,-0.8,i,-6,-2,5,5,-1.1,-4,-24
CCCCNC(=O)c1cc2c(=O)n3cccc(C)c3nc2n(CCN2CCOCC2)c1=N,150*,.,.,.,11,.,.,.,4,7
CC(NC(=O)CCSc1nc(-c2ccc3c(c2)OCO3)cc(C(F)(F)F)n1)c1ccccc1 (stereo not drawn),2.4,.,.,-4,.,.,.,.,2,?
CC(=O)N(Cc1cccs1)Cc1cc2cc(C)c(C)cc2nc1Cl,2.4,0.4,i,-6,2,-21,-26,0.8,-1,4

# Next section; the last three above are carried over.
SMILES,RanGTP-Impb inh,MLL AF4-AF9 inh,FGF22 binding,ALR inh,Beta apoptosis,rRNA inh HTS,rRNA inh HTS OD600,rRNA inh HTS RFP,Calb FLC,T cruzi repl
CCCCNC(=O)c1cc2c(=O)n3cccc(C)c3nc2n(CCN2CCOCC2)c1=N,150*,.,.,.,11,.,.,.,4,7
CC(NC(=O)CCSc1nc(-c2ccc3c(c2)OCO3)cc(C(F)(F)F)n1)c1ccccc1 (stereo not drawn),2.4,.,.,-4,.,.,.,.,2,?
CC(=O)N(Cc1cccs1)Cc1cc2cc(C)c(C)cc2nc1Cl,2.4,0.4,i,-6,2,-21,-26,0.8,-1,4
COc1ccc(NC(=O)N2CCCc3cc(C)ccc32)c(OC)c1,?,3.8,i,4,-2,-2,-2,1.4,1,13
O=C(Nc1nc2c(s1)CCCC2)c1ccc(S(=O)(=O)N2CCCc3ccccc32)cc1,5.6,.,.,-3,44,.,.,.,0,60*
CCc1cc(=O)oc2c(C)c(OC(C)C(=O)N3CC[C@@]4(O)CCCC[C@H]4C3)ccc12 (stereo partly drawn),2.6,-1.1,i,.,11,9,2,-3.0,-3,3
O=C(NCN1CCN(c2ccccc2F)CC1)c1ccccc1,-0.9,.,.,0,-8,.,.,.,-3,-6
COc1ccc(NC(=O)c2ccc(-c3ccc([N+](=O)[O-])cc3)o2)cc1,-2.1,-1.0,i,-4,1,-26*,4.0*,-5.3*,-2,4
O=C(NN=C1CCCCC1)Nc1ccccc1Cl,3.8,-0.4,i,-3,-6,0,-3,-4.7,2,-10
O=C(CC1SC(N2CCCC2)=NC1=O)Nc1ccc(C(=O)Nc2ncccc2O)cc1 (stereo not drawn),-2.1,5.4,i,14,-1,1,6,-2.0,-4,-11
CCOC(=O)N1CCN(C(=O)Cn2nc(-c3ccc(Cl)cc3)ccc2=O)CC1,-1.2,3.9,i,-6,-5,-7,4,-4.1,-8,5
Cc1ccc(-n2c(=O)c3ccccc3n(CC(=O)C(C)(C)C)c2=O)cc1,2.6,-70,i,1,-7,2,-3,-3.5,-2,1
CC(=O)c1c(N2CCOCC2)nc(=S)n(-c2ccc([N+](=O)[O-])cc2)c1C,1.7,.,.,-7,-7,.,.,.,2,-3
Cc1nc(NS(=O)(=O)c2ccccc2)sc1NC(=O)OCCN(C)C,1.0,.,.,9,2,.,.,.,-3,-7
Cc1nn(Cc2ccc(C(=O)N/N=C/c3ccncc3)o2)c(C)c1Cl,4.3,3.0,i,23,-6,-4,-11,5.4,25,4
COc1ccc2c(CCNC(=O)Nc3ccccc3)c[nH]c2c1,3.7,5.7,.,13,-2,-2,-5,-2.9,2,-24
Nc1sc(-c2ccccc2)cc1C(=O)N/N=C/c1ccc(Cl)cc1,-1.1,3.8,i,9,.,-18,-10,1.4,0,16
Cc1c(C)c2ccc(OC(C)C(=O)NCCN3CCOCC3)c(C)c2oc1=O (stereo not drawn),-3.0,-0.3,i,1,0,0,3,-4.5,-4,4
COCCN1CCN(Cc2cn[nH]c2-c2cc3ccccc3o2)CC1,-1.7,0.9,i,5,-3,24,6,1.4,-13,-1
O=C(COc1ccccc1Cl)NCCCNC(=O)c1ccccn1,-1.1,0.8,i,.,2,-1,0,-0.9,-9,2
O=C(CCC(=O)c1cccs1)OCC(=O)N1CCN(S(=O)(=O)c2ccccc2)CC1,-4.2,.,.,.,-5,.,.,.,-4,-7
CCCn1c(NC(=O)CCNC(=O)c2ccccc2Cl)nc2ccccc21,.,3.1,i,-1,12,.,.,.,.,.
CCc1ccc2[nH]c(=O)c(CN(Cc3ccccc3)C(=O)Nc3ccccc3OC)cc2c1,3.9,.,.,-6,11,.,.,.,2,66*
N#CCCn1cnc2ccccc21,-4.7,.,.,-3,-9,.,.,.,-11,-6
Cc1ccnc(NS(=O)(=O)c2ccc(NC(=O)CCS(=O)(=O)c3ccccc3)cc2)n1,-4.9,0.0,i,-15,-7,5,5,1.4,-9,-6
Nc1ncnc(Nc2ccc(F)cc2)n1,7.0,.,.,.,-1,.,.,.,-17,16
CC(C)(C)NC(=O)C(c1cccs1)N(C(=O)c1csnn1)c1ccccc1F (stereo not drawn),-1.9,-0.4,i,7,-5,-1,10,-1.6,3,-1
Cc1ccccc1C(=O)OCc1cnc(Cl)s1,2.9,-0.8,.,.,-6,-5,-7,0.9,-17,.
COc1ccc(N2CCN(S(=O)(=O)c3cn(C)c(=O)n(C)c3=O)CC2)cc1,3.4,-11,i,4,-8,7,7,3.9,4,-5
O=C(NCCS(=O)(=O)N1CCN(c2ccc(F)cc2)CC1)c1ccc(Br)o1,-4.0,-0.5,i,28,1,-26,-25,-3.0,-1,22
CC1CCCCN1S(=O)(=O)c1ccc(C(=O)Nc2ccccc2-c2nc3ccccc3[nH]2)cc1 (stereo not drawn),-1.2,-2.7,i,-12,46,4,7,-2.6,-9,50
CSc1nc(O)c(C(c2ccccc2Cl)c2c(O)nc(SC)[nH]c2=O)c(=O)[nH]1,-1.6,-0.7,i,4,-3,10,-8,-2.2,-5,-10
CN(C)N=Nc1nc2c([nH]1)c(=O)n(C)c(=O)n2C,-0.8,-12,i,1,2,12,0,1.8,-11,-4

# Structural class: the entries above containing a furan ring, fused or not
SMILES,RanGTP-Impb inh,MLL AF4-AF9 inh,FGF22 binding,ALR inh,Beta apoptosis,rRNA inh HTS,rRNA inh HTS OD600,rRNA inh HTS RFP,Calb FLC,T cruzi repl
Cc1ccc(Nc2nc(-c3sc(NC(=O)c4ccco4)nc3C)cs2)cc1,1.4,5.6,i,.,14,5,6,1.4,2,0
COc1ccc(NC(=O)c2ccc(-c3ccc([N+](=O)[O-])cc3)o2)cc1,-2.1,-1.0,i,-4,1,-26*,4.0*,-5.3*,-2,4
Cc1nn(Cc2ccc(C(=O)N/N=C/c3ccncc3)o2)c(C)c1Cl,4.3,3.0,i,23,-6,-4,-11,5.4,25,4
COCCN1CCN(Cc2cn[nH]c2-c2cc3ccccc3o2)CC1,-1.7,0.9,i,5,-3,24,6,1.4,-13,-1
O=C(NCCS(=O)(=O)N1CCN(c2ccc(F)cc2)CC1)c1ccc(Br)o1,-4.0,-0.5,i,28,1,-26,-25,-3.0,-1,22

# Record cards, as listed above. Order of screens: RanGTP-Impb inh	MLL AF4-AF9 inh	FGF22 binding	ALR inh	Beta apoptosis	rRNA inh HTS	rRNA inh HTS OD600	rRNA inh HTS RFP	Calb FLC	T cruzi repl
# Shown for Cc1ccccc1C(=O)OCc1cnc(Cl)s1 : 2.9	-0.8	.	.	-6	-5	-7	0.9	-17	.
# Shown for COCCN1CCN(Cc2cn[nH]c2-c2cc3ccccc3o2)CC1 : -1.7	0.9	i	5	-3	24	6	1.4	-13	-1
# Shown for CC1CCCCN1S(=O)(=O)c1ccc(C(=O)Nc2ccccc2-c2nc3ccccc3[nH]2)cc1 (stereo not drawn) : -1.2	-2.7	i	-12	46	4	7	-2.6	-9	50

# More structures follow:
SMILES,RanGTP-Impb inh,MLL AF4-AF9 inh,FGF22 binding,ALR inh,Beta apoptosis,rRNA inh HTS,rRNA inh HTS OD600,rRNA inh HTS RFP,Calb FLC,T cruzi repl
O=C1OCCN/C1=C\C(=O)c1ccccc1,7.2,-1.8,i,.,7,12,11,1.8,-2,-7
CN(CC(=O)Nc1ccc(F)cc1)CC(=O)NC1CCCCC1,.,-0.1,i,0,6,6,1,0.1,.,.
COCCNc1nnc(SCC(=O)Nc2cc(-c3ccccc3)nn2-c2ccccc2)s1,1.0,.,.,4,-19,.,.,.,2,3
Cc1ccc(-n2ncc3ccccc3c2=O)cc1Cl,3.4,-1.8,i,-3,4,-2,5,-5.4,-1,-18
OC1CCN(Cc2ccc3ccccc3c2)CC1,-2.3,-1.4,i,-1,-1,14,16,0.7,4,52
CCCCC(=O)N/N=C/c1ccc(N2CCOCC2)c([N+](=O)[O-])c1,-3.3,.,.,-28,-5,.,.,.,-2,2

# These rows are one share of the data. The share of hits here may be higher or lower than overall.
